# VDR inh = Inhibitors of the vitamin D receptor (VDR): qHTS; Vitamin D3 receptor (Homo sapiens), P11473; Potency, µM, without a hit: max response, negative = inhibition, hits mostly inhibitors; VDR-SRC2-3 peptide fluorescence polarization, 2 h; actives 0.93% (n = 400,000); AID 504847, 2011; active = well fitted inhibition curve with a large enough effect; inconclusive = small, poorly fitted or top-dose-only effect, or another doubt; inactive = no such curve, though single readings can be large or run the other way; note: series mostly up to about 120 µM
# Target sequence (P11473 whole entry, looked up): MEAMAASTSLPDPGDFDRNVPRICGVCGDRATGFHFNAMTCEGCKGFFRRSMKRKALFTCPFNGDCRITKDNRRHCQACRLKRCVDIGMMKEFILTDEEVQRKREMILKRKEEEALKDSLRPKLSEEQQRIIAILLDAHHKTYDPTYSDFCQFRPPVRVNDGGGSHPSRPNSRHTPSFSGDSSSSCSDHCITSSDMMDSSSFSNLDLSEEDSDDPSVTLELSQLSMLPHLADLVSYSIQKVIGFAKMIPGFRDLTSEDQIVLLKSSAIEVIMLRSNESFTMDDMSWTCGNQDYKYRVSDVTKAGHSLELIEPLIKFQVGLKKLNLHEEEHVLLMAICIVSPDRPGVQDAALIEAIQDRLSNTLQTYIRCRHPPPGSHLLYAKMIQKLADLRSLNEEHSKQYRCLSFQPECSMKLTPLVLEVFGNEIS
#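 Compounds are added to VDR with labelled SRC2-3 coactivator peptide and held 2 h at room temperature. Inhibition of the VDR–peptide interaction is then read as a change in fluorescence polarization.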
# An asterisk follows results filed as active; u = inconclusive; & = joins results of further samples. % is set by controls: 0 for no effect and ±100 for the full control effect; potency is the fitted concentration of half-maximal effect. The list is partial (hit frequency here may not be typical).
SMILES,VDR inh
CCN1CCN(C(=S)NC(=O)c2cc(OC)c(OC)c(OC)c2)CC1,-4%
Cc1ccc(-c2cc(C(=O)N/N=C/C=C/c3ccccc3)n[nH]2)s1,u
CC1CC(=O)N(CC(=O)Nc2ccc3c(c2)OCCO3)c2ccccc2S1 (centres undefined),6%
CSc1ncc2c(n1)-c1ccccc1N(Cc1ccc(F)cc1)S2(=O)=O,-5%
COc1cc(C(=O)NCCSc2ccc(F)cc2)cc(OC)c1OC,3%
CCOC(=O)C1=C(C)NC2(O)c3ccccc3C(=O)C12O (centres undefined),u
COc1cccc(CNc2ccc3nc(-c4ccc(N)cc4)c(OC)n3n2)c1,-2%&-15%
Cc1cc([N+](=O)[O-])nn1CC(=O)NCc1cccs1,-6%
CC(c1nnnn1C1CCCCC1)N(Cc1ccccc1)Cc1cccnc1 (centres undefined),-9%
CCOC(=O)C1(Cc2ccccc2C(F)(F)F)CCN(C2CCN(C(C)C)CC2)CC1,-7%
CN(C(=S)Nc1ccc(Oc2ccccc2)cc1)c1ccc(O)cc1,u
Cc1ccc(-c2csc(=Nc3ccccc3)n2Cc2ccc3c(c2)OCO3)cc1C,-10%
C=CCNC(=O)c1ccc(-c2ccc([N+](=O)[O-])cc2)o1,-9%
Cc1ccc(C(=O)N2CCN(C3c4cccc5cccc(c45)C3NS(=O)(=O)c3ccccc3)CC2)cc1 (centres undefined),-3%
CC(=O)C1C(c2ccc3ncccc3c2)NC(=O)NC1(O)C(F)(F)F (centres undefined),9%
CC(=O)c1cc(C(=O)Nc2ccc3ccccc3c2)c(C)o1,5%
CC1=C(Nc2ccc(C(=O)O)cc2)C(=O)c2ccccc2C1=O,-10%
O=C(/C=C/c1ccccc1)N/C(=C\c1ccco1)C(=O)O,6%
C#Cc1cccc(NC(=O)c2ccc3c(c2)C(=O)N(Cc2cccnc2)C3=O)c1,-8%
CC1(C)CN=c2s/c(=C\c3ccc(Cl)cc3)c(=O)n2C1,-26%
O=C(CN1C(=O)NC2(CCCCCC2)C1=O)Nc1ccccc1[N+](=O)[O-],4%
Cc1cc(C)cc(NC(=S)NC(=O)Cc2ccccc2)c1,-11%
CCOc1ccc(NC(=O)CC2C(=O)N(c3ccccc3)C(=O)N2C2CCCCC2)cc1 (centres undefined),2%
Cc1cc(/C=C2\SC(=S)NC2=O)c(C)n1-c1ccc(O)cc1,-1%
O=C1C=C(c2ccccc2)OC2(CCCC2)O1,4%

# The last 2 records of the section above open the next one:
SMILES,VDR inh
Cc1cc(/C=C2\SC(=S)NC2=O)c(C)n1-c1ccc(O)cc1,-1%
O=C1C=C(c2ccccc2)OC2(CCCC2)O1,4%
COc1cc(OC)c(NC(=O)CC(=O)Nc2cc(Cl)c(OC)cc2OC)cc1Cl,-28%
COc1ccccc1N(CC1CO1)S(=O)(=O)c1ccccc1 (centres undefined),4%
CCCOC(=O)c1ccc(NC(=O)/C=C/c2cccs2)cc1,-10%
COc1ccc(OC)c(NC(=O)CCCc2ccccc2)c1,6%
Cc1cc(NC(=O)CSc2nc3c([nH]c4ccccc43)c(=O)n2-c2ccc(Cl)cc2)no1,8%
Cc1cc(C)c2c(C)nn(-c3ccccc3)c2n1,-1%
CCOC(=O)c1c(N=CN(C)C)c2cc([N+](=O)[O-])cnc2n1C,19%
COC(=O)CCC(=O)NC(=S)Nc1sc(C)c(C)c1C(N)=O,-1%
Cc1ccc(C(=O)COC(=O)c2cc(Cl)nc3ccccc23)cc1C,7%
COc1cc(N)c(C(=O)c2nccc3cc(OC)c(OC)cc23)cc1OC,-13%
Cc1ccc(CN(C(=O)c2ccc(Cl)c([N+](=O)[O-])c2)C2CCS(=O)(=O)C2)o1 (centres undefined),-26%
CCOC(=O)C1CCCN(C(=O)c2cc3cc(F)ccc3[nH]2)C1 (centres undefined),-3%
COc1cc(/C=C/C(=O)O)ccc1OS(=O)(=O)c1c(C)c(C)cc(C)c1C,8%
CCN1C(=O)/C(=C/c2nc3ccccc3c(=O)[nH]2)c2ccccc21,-7%
Cc1ccc(N2CCN(C(=O)Nc3cn(CC(C)C)c(=O)c4ccccc34)CC2)c(C)c1,7%
CCSc1ccc(-c2nn(-c3ccccc3)cc2/C=C(/C#N)C(=O)NC)cc1,-20%
O=C1Cn2c(nc3ccccc32)N1c1cccc(C(F)(F)F)c1,6%
O=C(CN1C(=O)NC2(CCCCCCC2)C1=O)NCc1ccc2c(c1)OCO2,4%
O=[N+]([O-])c1ccc(Oc2cccc3cccnc23)c([N+](=O)[O-])c1,u
Cc1ccc(NC(=O)Cn2nnc(-c3nc(-c4ccc(Cl)cc4)no3)c2N)cc1C,12%
CCCc1cc(=O)[nH]c(SCC(=O)N(Cc2ccccc2)C(C)C)n1,8%
OCCNc1c2ccccc2nc2c(F)c(F)c(F)c(F)c12,-12%
COc1ccc(S(=O)(=O)NCCOc2ccc(Cl)cc2)cc1,-18%
C/C=C/c1ccc(OCC(=O)O)c(OC)c1,11%
O=C(c1ccc(Cl)cc1)N1CCN(c2ccc(F)cc2)CC1,6%

# Some of the entries above in a different format.
Compound	VDR inh
CCCOC(=O)c1ccc(NC(=O)/C=C/c2cccs2)cc1	-10%
COc1ccc(OC)c(NC(=O)CCCc2ccccc2)c1	6%
Cc1cc(NC(=O)CSc2nc3c([nH]c4ccccc43)c(=O)n2-c2ccc(Cl)cc2)no1	8%
Cc1cc(C)c2c(C)nn(-c3ccccc3)c2n1	-1%
CCOC(=O)c1c(N=CN(C)C)c2cc([N+](=O)[O-])cnc2n1C	19%
COC(=O)CCC(=O)NC(=S)Nc1sc(C)c(C)c1C(N)=O	-1%
Cc1ccc(C(=O)COC(=O)c2cc(Cl)nc3ccccc23)cc1C	7%
COc1cc(N)c(C(=O)c2nccc3cc(OC)c(OC)cc23)cc1OC	-13%
Cc1ccc(CN(C(=O)c2ccc(Cl)c([N+](=O)[O-])c2)C2CCS(=O)(=O)C2)o1 (centres undefined)	-26%
CCOC(=O)C1CCCN(C(=O)c2cc3cc(F)ccc3[nH]2)C1 (centres undefined)	-3%
COc1cc(/C=C/C(=O)O)ccc1OS(=O)(=O)c1c(C)c(C)cc(C)c1C	8%
CCN1C(=O)/C(=C/c2nc3ccccc3c(=O)[nH]2)c2ccccc21	-7%
Cc1ccc(N2CCN(C(=O)Nc3cn(CC(C)C)c(=O)c4ccccc34)CC2)c(C)c1	7%
CCSc1ccc(-c2nn(-c3ccccc3)cc2/C=C(/C#N)C(=O)NC)cc1	-20%
O=C1Cn2c(nc3ccccc32)N1c1cccc(C(F)(F)F)c1	6%
O=C(CN1C(=O)NC2(CCCCCCC2)C1=O)NCc1ccc2c(c1)OCO2	4%

# Continuation:
SMILES,VDR inh
Cc1c(NC(=O)COc2cccc(Br)c2)c(=O)n(-c2ccccc2)n1C,-10%
CC(C)C(=O)Nc1ccc(C(=O)CN2C(=O)NC3(CCOc4ccccc43)C2=O)cc1 (centres undefined),-10%
CC1(C)CC[C@]2(C(=O)O)[C@H](O)C[C@]3(C)C(=CCC4[C@@]5(C)C[C@H](O)[C@H](O)[C@@](C)(CO)C5CC[C@]43C)[C@@H]2C1 (some centres undefined),-15%
CCc1nc(OCCN(CC)CC)c2oc3ccccc3c2n1,-13%
OC(CN1CCCCC1)Cn1c2ccccc2c2ccccc21 (centres undefined),-5%
CC1CCCC(C)N1c1nnc(NC(=O)Cn2c(=O)oc3ccccc32)s1 (centres undefined),-3%
NS(=O)(=O)c1ccc(CCNc2ncnc3sccc23)cc1,2%
COc1ccc(-c2csc(NC(CO)c3nc4ccccc4n3CCCO)n2)cc1 (centres undefined),-9%
O=C(CNC(=O)c1cccs1)OCC(=O)c1cccs1,9%
O=C(COC(=O)c1cc(Br)ccc1O)NNC(=O)c1ccc(Cl)cc1,2%
NNc1ccc2nnc(C(F)(F)C(F)(F)C(F)(F)F)n2n1,8%
CC(C)CCN1CCN=C1N(C)C,-5%
Cn1c(=O)c2nc(-c3ccccc3)oc2c2ccccc21,14%
CCOC(=O)N1CCN(C(=O)CNCc2cccs2)CC1,-5%
CCOC(=O)Cc1cc(=O)n(-c2nc3ccccc3s2)[nH]1,-7%
O=c1cc(N2CCN(c3ccc(F)cc3)CC2)[nH]c(=O)n1C1CCCCC1,5%
COc1cc(NC(=O)c2c(C)oc3c2C2=NCCN2C=N3)cc(OC)c1OC,5%
COC(=O)c1cc(Br)c(=O)n(CCc2ccc(O)cc2)c1,14%
C=CCn1c(-c2ccco2)n[nH]c1=S,9%
COc1ccccc1-c1nc(NC2CC2)c2ccccc2n1,-25%
OC1(c2ccc(Cl)cc2)CCN(Cc2cn[nH]c2-c2ccccc2)CC1,1%
CCC(O)c1ccccc1 (centres undefined),8%&-5%&7%
Cc1ccc2c(c1)N(C(=O)CCC(=O)N1CCN(c3ccccc3)CC1)CCO2,-8%
CC(=O)Nc1ccc(NC(=O)C2CCN(c3ccc(C(F)(F)F)cn3)CC2)cc1,2%
CCN(CC(=O)Nc1c(F)cccc1F)C(=O)CN1C(=O)C2CCCCC2C1=O (centres undefined),-11%
# Later entries
SMILES,VDR inh
c1ccc(CN2c3ccccc3-c3nc4ccccc4n3C2c2ccccn2)cc1 (centres undefined),6%
O=C(Nn1cnnc1)c1ccccc1CCc1ccccc1,-2%
CCNc1ncc2nc(-c3ccc(Cl)cc3)c(=O)n(C[C@H]3CCCO3)c2n1,-20%
CSCCC(NC(=O)c1cc(S(=O)(=O)N2CCOCC2)ccc1C)c1nc2ccccc2[nH]1 (centres undefined),-2%
CC(C)Cn1c(SCC(=O)N2CCc3ccccc3C2)nc(O)cc1=O,10%
CCc1nn(CC(=O)NCCCOC)c(=O)c2cc3ccccc3n12,-4%
Cc1ccc(S(=O)(=O)NCc2ccccn2)cc1C,-11%
CCCCCCc1c(O)nc(SCC(=O)O)[nH]c1=O,0%
O=C(C1CCCCC1)N(Cc1cccnc1)c1nc2ccc(Cl)cc2s1,9%
O=C(O)[C@@H]1CCCN1C(=O)c1ccccc1N1C(=O)[C@@H]2Cc3c([nH]c4ccccc34)C(c3cccc(Cl)c3)N2C1=O (some centres undefined),-5%
COc1ccc(CN2CCN(Cc3ccc4cc(F)ccc4n3)CC2CCO)c(C)c1C (centres undefined),4%
COc1ccc(C2=NN(c3ccccc3)C(c3ccc(OC)c(OC)c3)C2)cc1 (centres undefined),-13%
CCNc1nc(OC)nc(SCC(N)=O)n1,-14%
CS(=O)(=O)c1ccc(Cl)c(NC(=O)CCCSc2ccccc2)c1,-5%
Cc1ccc(C(=O)N2CCN(c3ccccc3)CC2)cc1S(=O)(=O)N1CCOCC1,-21%
Cc1ccc(N=N/C(=C\O)C(=O)c2ccncc2)cc1,-18%
CCCc1cc2c(=O)c(-c3ccccn3)c(C)oc2cc1O,-3%
Cc1cc(C)c(/C=N/NC(=O)c2nnn(-c3nonc3N)c2CN2CCC(C)CC2)c(C)c1,-3%
CCC(=O)Nc1ccc(C2=Nn3c(nnc3C(C)C)SC2)cc1,-29%
COc1ccc(-c2[nH]ncc2CN2CCN(C(=O)c3cccs3)CC2)c(F)c1,-7%
Cc1ccc(/C=N/NC(=O)Cn2nnc(N)n2)cc1,-12%
CCOC(=O)CNC(c1ccccc1)c1cc(Br)ccc1NC(=O)c1ccc(Cl)cc1 (centres undefined),-18%
CCCNC(=O)c1ccc(-n2c(-c3ccccc3)cc3c2CCCCC3)cc1,2%
CC1(C(=O)NCCN2CCOCC2)C=CCN1C(=O)c1ccccc1 (centres undefined),u
C/C(=N\NC(=O)CNC(=O)c1ccccc1Br)c1ccco1,4%
# (further entries)
SMILES,VDR inh
CCOCCCNC(=O)C1CCCN1C(=O)Nc1ccccc1[N+](=O)[O-] (centres undefined),-15%
Cc1nn(-c2ccc(C(=O)O)cc2)c(=O)c2ccccc12,-13%
CCCC(=O)Nc1ccc2c(c1)nc1n2CCOC1,11%
O=C(CN1CCN(c2cccc(Cl)c2)CC1)Nc1ccc([N+](=O)[O-])cc1C(=O)Nc1ccccc1F,-16%
O=c1oc2cc(Cl)ccc2n1CSc1nc2ccccc2s1,8%
CCOC(=O)C(NC(=O)c1cccc(Cl)c1)(OCc1ccc(F)cc1)C(F)(F)F (centres undefined),0%
CC(C)(C)NCCOCCOc1ccccc1-c1ccccc1,9%
CN1CCN(c2ccc(S(=O)(=O)N3CCOCC3)cc2NC(=O)C2CCCCC2)CC1,7%
Fc1ccc(C(c2nnnn2Cc2cccs2)N2CCN(c3ccccc3)CC2)cc1 (centres undefined),-7%
CC(C)CNS(=O)(=O)c1ccc2c(c1)OCCO2,14%
CCCOc1nc2c(c(=O)n(C)c(=O)n2C)n1CCC,2%
COc1cccc(CNS(=O)(=O)c2ccc3c(c2)oc(=O)n3C)c1,-6%
O=S(=O)(c1cc(Cl)ccc1Cl)N1CCCC1,6%
Cc1cccc2c1nc(-c1ccccc1)n1nnnc21,-7%
CCCN(CC(=O)Nc1ccccc1OC)C(=O)c1nc2nc(C)ccn2n1,-9%
COc1cccc(NC(=O)c2ccc3c(c2)N(CC(=O)N2CCOCC2)C(=O)C(C)(C)O3)c1,9%
CCN(CC)C(=O)CSc1nc(-c2ccc(C)cc2)nc2c1Cc1c(CO)cnc(C)c1O2,-4%
COC(=O)CCCC1=CC2=CC(=O)C(C)(OC(=O)c3cccs3)C(=O)C2=CN1Cc1ccco1 (centres undefined),-6%
COc1ccccc1N1CCN(C(=O)C(=O)c2c[nH]c3ccccc23)CC1,3%
Cc1ccc(S(=O)(=O)N2CCC(C(=O)OCc3ccccc3)CC2)cc1C,4%
CC(=O)c1c(C)oc2c1cc(NS(=O)(=O)c1ccc(Cl)c(C)c1)c1ccccc12,-12%
COc1ccc(NC(=O)N(C)C[C@H]2Oc3ccc(NC(=O)NC4CCCCC4)cc3C(=O)N([C@H](C)CO)C[C@@H]2C)cc1,-8%
c1ccc(-c2cn(C[C@H]3CC[C@@H]([C@@H]4CC[C@H](Cn5cc(-c6ccccn6)nn5)O4)O3)nn2)nc1,2%
CS(=O)(=O)N1CCC2(CCCN(c3cccc(-c4ccccc4)c3)C2)CC1,-18%
Cc1cc(C)c(C(=O)CSc2nc(C)cc(=O)[nH]2)c(C)c1,14%
COc1ccc(OC)c(NC(=O)CN2CCCN(Cc3ccccc3Cl)S2(=O)=O)c1,-4%
CSc1nc(Sc2ccccc2Cl)c2ccccc2n1,1%

# Assay outcomes from PubChem.
